AF4-AF9 inh: MLL-AF4/AF9 protein interaction inhibition; P42568; AlphaScreen, biotin-AF4 peptide binding to FLAG-AF9; inhibition, % at 10 µM; 350,000 tested, 0.47% active; AID 651704;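 active = every replicate reaching a set inhibition limit, whatever the replicate mean, cut at about 25% in these data; inconclusive = mean inhibition reaches that limit but some replicates miss it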;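 note: 0% = plate neutral control median and 100% = total signal loss; the record names both 10 and 1 µM as test concentration; the first replicate is given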
FGF22 binding: shifts melting point of recombinant human FGF22 | Q9HCT0 | recombinant FGF22 thermal shift, SYPRO orange fluorescence; percent of sucrose octasulfate shift, DMSO zero | calls only at 9.99 µM | 340,000 tested, 1.5% active | AID 651658;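 active = melting point raised past a set limit in the mean and every replicate; inconclusive = no clear call; three in four hits are not shown here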
Target sequence (Q9HCT0 whole entry, looked up): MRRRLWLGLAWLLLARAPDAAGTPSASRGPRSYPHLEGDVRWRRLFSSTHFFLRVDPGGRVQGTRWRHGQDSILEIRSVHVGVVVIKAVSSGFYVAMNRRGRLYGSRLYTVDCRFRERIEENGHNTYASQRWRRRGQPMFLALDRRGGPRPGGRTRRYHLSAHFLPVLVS
HNF4A DNA FP: change in binding of human HNF4 alpha to DNA; P41235; HNF4a-FITC DNA binding, fluorescence polarization, 1 h; activity change, % at 10 µM; 360,000 tested, 0.3% active; in the data active = activity change above about 30%, passing the limit was not always enough;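 note: controls were the assay level and a saturating level of protein; the project sought stronger binding though the title names inhibitors; some compounds called inactive have numbers as strong as hits; positive values seem to mean higher polarization but the record does not say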
Target sequence (P41235 whole entry, looked up): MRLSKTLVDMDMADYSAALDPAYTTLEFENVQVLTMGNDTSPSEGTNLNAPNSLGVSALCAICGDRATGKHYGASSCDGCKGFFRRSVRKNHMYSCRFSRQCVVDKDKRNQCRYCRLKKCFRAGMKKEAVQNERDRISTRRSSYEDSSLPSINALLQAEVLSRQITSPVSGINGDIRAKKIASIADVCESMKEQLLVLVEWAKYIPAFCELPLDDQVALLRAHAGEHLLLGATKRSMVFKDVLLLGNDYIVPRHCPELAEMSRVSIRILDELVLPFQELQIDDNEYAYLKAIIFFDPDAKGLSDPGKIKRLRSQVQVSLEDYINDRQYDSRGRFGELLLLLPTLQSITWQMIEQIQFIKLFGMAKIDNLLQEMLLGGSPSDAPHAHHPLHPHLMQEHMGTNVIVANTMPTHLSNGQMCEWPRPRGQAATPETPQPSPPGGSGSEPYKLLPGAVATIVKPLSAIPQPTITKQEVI
ALR H2O2 inh: blocks human ALR sulfhydryl oxidase activity; P55789; inhibition, % (test concentration not listed); purified ALR, DTT oxidation, H2O2 HRP-luminol luminescence; 290,000 tested, 3.8% active; AID 485317;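 active = mean and each replicate at 75% or more; inconclusive = only one of the two met; inactive = neither met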;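 note: stock transfer was 7.5 nL into about 7.5 µL; 0% = neutral wells and 100% = wells with inactivated enzyme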
Target sequence (P55789 whole entry, looked up): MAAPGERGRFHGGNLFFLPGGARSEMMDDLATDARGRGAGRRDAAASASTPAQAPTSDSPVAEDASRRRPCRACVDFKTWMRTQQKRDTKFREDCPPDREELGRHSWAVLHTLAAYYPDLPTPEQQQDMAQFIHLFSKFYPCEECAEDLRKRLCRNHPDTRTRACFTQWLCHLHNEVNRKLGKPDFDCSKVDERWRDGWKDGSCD
Vif TR-FRET: HIV-1 Vif–A3G interaction blockers – biochemical, TR-FRET, GST-Vif 1-94, biotin-A3G peptide, dose response retest, primary screen (AID 1117319). TR-FRET GST-Vif / biotin-A3G peptide binding; higher % means a stronger effect; test concentration not given here; strong numbers were not always called active. inhibition, %; hits with a dose series show IC50 in µM. 260,000 tested, 0.57% active;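 active = above the screen mean plus three standard deviations and confirmed in dose response; inconclusive = results disagree or hit not tested in dose response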;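 note: Vif residues 1-94 fused to GST binding biotinylated APOBEC3G peptide 110-148; 0% = full assay without inhibitor and 100% = GST in place of GST-Vif; retest series ran down from 100 µM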
Ecoli growth: inhibitors of Escherichia coli growth; 330,000 tested, 0.21% active; OD600 absorbance (test concentration not listed); AID 1053175; OD600, 23 h; stronger effect = lower value;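 active = OD600 absorbance below the run mean of sample wells minus 3.6 SD, in any replicate, cut at about 0.56 in these data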;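 note: stock transfer was 300 nL into about 60 µL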
Ecoli rRNA inh: inhibitors of bacterial rRNA selective over humanized ribosomes; 350,000 tested, 1.6% active; GFP signal change (wild-type ribosome), % (test concentration not listed); E. coli WT GFP vs humanized-ribosome RFP mutants, fluorescence, 24 h; stronger effect = lower value; DMSO median 0, no signal -100;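 active = significant combined selectivity score with lowered wild-type GFP, culture density cut under 30%, mutant RFP and density less affected; inactive = any of these conditions unmet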; note: one replicate is shown; some compounds called inactive have numbers as strong as hits
Ecoli rRNA inh OD600: further read-out of Ecoli rRNA inh, marked with its call; OD600 change, %; measured here: OD600 growth;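 optical density of the mix in the first replicate; 0 = DMSO median and -100 = no signal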
Ecoli rRNA inh RFP: second read-out of Ecoli rRNA inh, no call of its own (marks repeat the call); RFP signal change, %; measured here: RFP humanized mutant strains;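 first replicate; 0 = DMSO median and -100 = no signal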
An asterisk follows results filed as active; i = inactive; ? = inconclusive; . = no result given.

SMILES	AF4-AF9 inh	FGF22 binding	HNF4A DNA FP	ALR H2O2 inh	Vif TR-FRET	Ecoli growth	Ecoli rRNA inh	Ecoli rRNA inh OD600	Ecoli rRNA inh RFP
CN1C(=O)c2cc(NC(=O)C3CCOCC3)ccc2OC[C@H]2O[C@@H](CC(=O)NCC3CC3)CC[C@H]21	-1.4	i	.	.	.	.	6	21	-0.3
O=C1CN(C(=O)CN2CCOCC2)C(c2ccccc2)c2cc(Br)ccc2N1 (centres undefined)	0.8	i	-0.3	7	-3%	0.73	-6	-5	-2.5
O=C(COC(=O)c1ccc2[nH]c3c(c2c1)CCCC3)Nc1ccccc1Cl	-1.1	.	1.9	1	-10%	0.74	11	16	-0.7
C[C@H]1CN([C@@H](C)CO)C(=O)Cc2cc(NS(=O)(=O)c3cn(C)cn3)ccc2O[C@@H]1CN(C)S(=O)(=O)c1ccc(Cl)cc1	1.6	i	.	.	.	.	0	-1	0.1
CN(C(=O)c1cccc([N+](=O)[O-])c1)c1ccccc1C(=O)NCc1ccccc1	0.5	i	0.6	-10	.	0.69	4	9	1.1
CC(C)NC(=O)N[C@H]1CC[C@H](CCNC(=O)C2CC2)O[C@@H]1CO	-2.2	i	.	.	.	.	3	5	0.5
COc1ccc(C(=O)NC(=O)CSc2n[nH]c(N)n2)cc1	0.2	i	3.8	4	-7%	0.69	0	10	-2.1
O=c1nc2onnc2c(C=NO)[nH]1	-8.6	i	0.1	.	1%	0.69	6	5	-1.5
Cc1cccc(-n2c(=O)[nH]c3c(C(N)=O)nc(-c4ccccc4Cl)nc32)c1	-1.3	i	-2.5	-1	-2%	.	5	6	0.9
CCS(=O)(=O)CCSc1nc2c(cc1C#N)CCCC2	4.1	i	4.0	2	-4%	0.66	-15	-15	1.8
Cc1ccc(C)c(NC(=O)NCc2ccccn2)c1	-8.3	i	-2.2	16	-7%	0.72	12	6	0.9
O=C(C[C@@H]1CC[C@@H]2[C@H](COC[C@H](O)CN2S(=O)(=O)c2ccccc2Cl)O1)N1CCC(Cc2ccccc2)CC1	4.2	i	.	.	.	.	-30	-57	11
Cc1ccc(CS/C(Nc2ccccc2C)=C(\C#N)C(=O)NCc2ccco2)c(C)c1	.	.	-1.2	99*	4%	0.7	.	.	.
COc1ccccc1N1CCN(C2CCN(S(=O)(=O)c3ccc4ccccc4c3)CC2)CC1	.	.	4.5	-26	4%	0.67	.	.	.
Fc1cc2nc(-c3ccncc3)[nH]c2cc1F	.	.	-0.6	-8	2%	0.63	.	.	.
CCCNC(=O)N1CC2(CCN(C(=O)c3cccnc3)CC2)c2c([nH]c3cc(OC)ccc23)[C@@H]1CO	-0.2	i	.	.	.	.	-1	-2	0.1
CCCCNC(C(=O)Nc1cccc(S(=O)(=O)N2CCOCC2)c1)c1ccccc1 (centres undefined)	3.2	i	3.3	-2	-12%	0.64	-9	-10	-0.3
CNc1ncnc2c1ncn2[C@H]1CN(Cc2ccc(OC)cc2)C[C@@H](CO)O1	-2.6	i	-1.6	.	.	.	4	12	-1.3
C[C@H](CO)N1C[C@H](C)[C@H](CN(C)C(=O)Nc2ccccc2)Oc2c(NC(=O)Nc3cccc4ccccc34)cccc2C1=O	-1.8	i	.	.	.	.	1	-1	1.2
CC1CCN(c2nc(/C=C/c3ccccc3)nc3ccccc23)CC1	32*	i	-0.9	.	1%	0.69	-19	-31	12
COc1ccc2c3c([nH]c2c1)[C@H](CO)N(C(=O)Nc1ccc(F)cc1)CC31CCN(S(C)(=O)=O)CC1	1.0	i	.	.	.	.	2	-5	6.1
Cc1nn(C)cc1CN1CCC(CO)(CCOc2ccccc2)CC1	-8.6	i	2.3	-2	.	0.72	11	3	-12
COc1ccc(C(=O)Nc2ccnn2C2CCN(C(C)CSC)CC2)cc1 (centres undefined)	-3.7	i	-0.4	-4	.	0.72	4	0	-4.0
CCOc1ccc(Br)cc1S(=O)(=O)NC1CC(C)(C)NC(C)(C)C1	-3.3	i	2.6	-9	.	0.64	6	11	3.4
O=C(c1cc(-c2ccc(Cl)s2)nc2ccccc12)N1CCCC1	2.0	i	1.3	.	.	0.67	13	9	6.0
CN(C)S(=O)(=O)c1ccc(Cl)c(C(=O)NNC(=O)Cc2nc3ccccc3n2C)c1	-0.7	i	2.8	.	.	0.64	10	16	0.2
O=C(CN1CCN(C(c2ccccc2)c2ccccc2)CC1)N1CCN(c2ccccc2)CC1	.	i	-2.5	-3	6%	0.7	-38*	-20*	6.3*
Cc1ccc(S(=O)(=O)N2CCN(C(=O)COC(=O)CNC(=O)c3ccc(Cl)cc3Cl)CC2)cc1	-1.2	i	1.5	-6	5%	0.66	0	7	1.8
CCOC(=O)C1=C(COC(=O)CCCOc2ccccc2)NC(=O)NC1C (centres undefined)	-0.6	.	2.4	.	8%	0.63	4	8	0.2
Cn1c(C(=O)O)cc2cc(F)ccc21	.	.	-0.7	-20	-3%	0.68	.	.	.
Cc1cc(NC(=O)CSc2nc3[nH]c(=O)cc(O)c3s2)ccc1Br	-0.9	.	3.1	.	-4%	0.71	1	-2	1.3
Cc1cc(F)ccc1NC(=O)Cn1c(C)csc1=O	0.0	i	-3.5	-20	.	0.72	5	4	-4.2
COc1cc2c(cc1OC)C1=NC(=O)CN1C(SCc1ccccc1C)=N2	.	.	6.6	-10	-2%	0.76	.	.	.
Cc1ccc(NC(=S)N2CCN(C(=O)C3CCCO3)CC2)cc1 (centres undefined)	.	.	-2.0	-10	.	0.69	.	.	.
Cc1ccc(S(=O)(=O)N2CCC(=O)N(CCOC(=O)Nc3ccccc3C)CC2)cc1	-0.8	i	-0.8	0	31%	0.66	2	5	-2.1
Cc1ccc(C)c(NC(=S)NC2CC3CCCC(C2)N3CC(C)C)c1 (centres undefined)	.	.	1.3	.	0%	0.69	.	.	.
CCOc1ccccc1-c1nc(-c2ccc(C)nc2OC)no1	.	.	4.3	-8	-56%	0.65	.	.	.
N/C(=N\OC(=O)C(c1ccccc1)c1ccccc1)c1ccccn1	.	.	-1.9	-1	-1%	.	.	.	.
C#CCNC(=O)C(C)c1ncc(C(F)(F)F)cc1Cl (centres undefined)	-0.7	i	4.9	-3	-1%	0.68	12	4	-0.2
CCCc1cc(=O)c2c(O)cccc2o1	-4.2	i	-2.3	-5	.	0.68	4	-9	2.9
CCN(CC(=O)Nc1cc(Cl)ccc1C)C(=O)CCOc1ccc(C)cc1	-0.9	.	-0.1	-2	-2%	0.64	3	0	2.4
CC1=C/C(=N\N=C2\NC(=O)C(CC(=O)Nc3ccccc3)S2)CC(C)(C)C1 (centres undefined)	1.0	i	-4.8	2	?	.	-34	-48	-12
c1ccc(-c2nnc(Cn3c4ccccc4c4nc5ccccc5nc43)o2)cc1	.	.	-4.0	.	-3%	0.79	.	.	.
CCCC(=O)N(CCN1CCOCC1)c1nc2c(C)ccc(C)c2s1	6.8	i	-4.5	-3	.	0.68	-38	-44	-8.0
COC(=O)C(Cc1ccc(OC(=O)c2ccc(C(F)(F)F)cc2)cc1)N1Cc2ccccc2C1=O (centres undefined)	.	.	-6.4	-22	30%	0.79	.	.	.
CCc1nc(C)c(C(=O)N2CCCC(C(=O)Nc3cccc(-c4cccc(C)c4)c3)C2)o1 (centres undefined)	1.2	i	-1.7	-2	2%	0.68	-40	-65	3.2
O=C(NCCO)c1ccc2c(c1)S(=O)(=O)c1ccccc1C2=O	.	i	-0.2	.	1%	0.65	8	13	-0.9
COCCNC(=O)C[C@@H]1CC[C@H]2[C@@H](COC[C@@H](O)CN2C(=O)c2cc(Cl)cc(Cl)c2)O1	-25	i	.	.	.	.	5	11	1.1
O=c1[nH]c(SCc2ccc(Cl)cc2)nc2ccsc12	-2.5	.	.	-6	.	0.66	0	-10	-7.6
O=[N+]([O-])c1ccc(Oc2cccc(F)c2)c2ccncc12	.	.	-0.8	-17	32%	0.69	.	.	.
CCCCCC(=O)N1C[C@H](O)[C@@H](n2cc(COC(=O)c3ccccc3)nn2)C[C@@H]1c1ccc(C)cc1	-0.7	i	4.8	.	.	.	1	-6	-0.5
CO[C@@H]1CN(C)C(=O)c2ccc(NC(=O)C3CCC3)cc2OC[C@H](C)N(Cc2nccs2)C[C@@H]1C	0.7	i	.	.	.	.	-5	-1	-0.3
Nc1c(Cl)cc(Cl)cc1C(=O)OCC(=O)N1CCCC1	.	.	-2.9	.	?	0.74	.	.	.
O=C(NCc1ccccc1)c1onc(CSc2ccccc2)c1C(=O)NCC1CC1	-4.6	i	0.8	6	3%	0.74	-5	-1	-5.1
CN(C)C(=O)C[C@@H]1C[C@H]2c3cc(NC(=O)Nc4ccccc4F)ccc3O[C@H]2[C@H](CO)O1	-7.3	i	.	.	.	.	-2	0	-1.4
COc1ccccc1C1CC(c2ccccc2)=NN1C(=O)c1ccccc1 (centres undefined)	9.4	i	0.8	-1	0%	0.71	-29	-31	-0.9
Cc1ccc(CN2C(=O)CSc3ccc(C(=O)NCCN4CCOCC4)cc32)cc1	.	.	-3.6	-10	3%	0.73	.	.	.
O=C(CC1CC1)N1[C@@H](CO)[C@@H]2c3ccccc3N(S(=O)(=O)c3ccc(F)cc3)C[C@@H]21	1.8	i	.	.	.	.	-1	-9	-3.1
COc1ccc(S(=O)(=O)NC(=O)C2(C)CCN2C(=O)c2ccccc2CCc2ccccc2)cc1 (centres undefined)	-16	i	-1.2	.	.	.	-7	-7	-2.9
Cc1ccc(-c2nnn(CC(=O)N(CC(=O)NC3CCCCC3)c3cnc4ccccc4c3)n2)o1	.	.	0.6	-1	1%	0.7	.	.	.

An excerpt from above in order of the Ecoli rRNA inh value, ascending:
| molecule | AF4-AF9 inh | FGF22 binding | HNF4A DNA FP | ALR H2O2 inh | Vif TR-FRET | Ecoli growth | Ecoli rRNA inh | Ecoli rRNA inh OD600 | Ecoli rRNA inh RFP |
| --- | --- | --- | --- | --- | --- | --- | --- | --- | --- |
| COc1ccccc1C1CC(c2ccccc2)=NN1C(=O)c1ccccc1 (centres undefined) | 9.4 | i | 0.8 | -1 | 0% | 0.71 | -29 | -31 | -0.9 |
| O=C(NCc1ccccc1)c1onc(CSc2ccccc2)c1C(=O)NCC1CC1 | -4.6 | i | 0.8 | 6 | 3% | 0.74 | -5 | -1 | -5.1 |
| O=c1[nH]c(SCc2ccc(Cl)cc2)nc2ccsc12 | -2.5 | . | . | -6 | . | 0.66 | 0 | -10 | -7.6 |
| CCCCCC(=O)N1C[C@H](O)[C@@H](n2cc(COC(=O)c3ccccc3)nn2)C[C@@H]1c1ccc(C)cc1 | -0.7 | i | 4.8 | . | . | . | 1 | -6 | -0.5 |
| O=C(NCCO)c1ccc2c(c1)S(=O)(=O)c1ccccc1C2=O | . | i | -0.2 | . | 1% | 0.65 | 8 | 13 | -0.9 |

Following part:
SMILES	AF4-AF9 inh	FGF22 binding	HNF4A DNA FP	ALR H2O2 inh	Vif TR-FRET	Ecoli growth	Ecoli rRNA inh	Ecoli rRNA inh OD600	Ecoli rRNA inh RFP
Fc1ccc(COc2ccccc2CNCc2ccncc2)cc1	1.8	i	0.1	-1	-2%	0.7	1	1	-0.9
CCNC(=S)N1CCC(C(N)=O)CC1	4.8	i	3.3	0	-11%	0.74	13	6	3.0
O=C(Nn1cnnc1)C1Cc2ccccc2CN1S(=O)(=O)c1ccc(F)cc1 (centres undefined)	.	.	-0.1	0	6%	0.63	.	.	.
CS(=O)(=O)Cc1ccc(C(=O)NC2CCSc3ccccc32)cc1 (centres undefined)	-3.0	i	1.2	-6	.	0.68	-2	-7	1.7

Only part of the results is shown, so the mix of outcomes need not match the whole.
